Screening results as filed in PubChem BioAssay.
TSHR agonist = agonists of human thyroid stimulating hormone receptor. P16473. HEK293-CNG-TSHR cells (CNG channel as cAMP sensor), membrane potential dye, cAMP. Potency, µM (doses to about 57.1 µM), for the others: at the highest dose activation, most hits filed as activators. actives 0.48% (n = 73,000). AID 926; active = well fitted activation curve of enough size with the parental cells flat; inconclusive = any curve in the parental cells; inactive = parental cells flat and receptor cells flat or falling; also: potency is read from the fitted curve at half-maximal effect; % of control where 0% means no effect; weak receptor curves with flat parental cells got no call and are not listed
Target sequence (P16473 whole entry, looked up): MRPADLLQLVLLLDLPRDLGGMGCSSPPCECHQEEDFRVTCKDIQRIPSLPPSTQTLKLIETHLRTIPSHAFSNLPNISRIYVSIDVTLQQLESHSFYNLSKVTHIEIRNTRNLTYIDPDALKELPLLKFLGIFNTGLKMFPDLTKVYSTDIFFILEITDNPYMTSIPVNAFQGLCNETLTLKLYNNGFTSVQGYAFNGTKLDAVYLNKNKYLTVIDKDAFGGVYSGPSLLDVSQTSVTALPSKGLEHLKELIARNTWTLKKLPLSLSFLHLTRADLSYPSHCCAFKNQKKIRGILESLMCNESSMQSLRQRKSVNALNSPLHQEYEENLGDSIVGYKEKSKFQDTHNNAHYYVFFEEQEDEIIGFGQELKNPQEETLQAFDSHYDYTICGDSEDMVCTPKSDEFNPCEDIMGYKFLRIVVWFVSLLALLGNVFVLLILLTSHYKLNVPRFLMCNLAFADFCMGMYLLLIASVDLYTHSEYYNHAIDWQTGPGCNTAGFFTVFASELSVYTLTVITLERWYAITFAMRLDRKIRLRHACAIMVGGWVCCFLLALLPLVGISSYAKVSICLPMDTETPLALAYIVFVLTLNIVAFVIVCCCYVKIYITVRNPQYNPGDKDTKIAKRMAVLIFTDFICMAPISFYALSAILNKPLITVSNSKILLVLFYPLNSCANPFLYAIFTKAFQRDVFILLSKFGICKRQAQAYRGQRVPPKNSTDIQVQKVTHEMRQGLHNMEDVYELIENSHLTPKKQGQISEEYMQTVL
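cAMP rise detected as CNG-channel membrane depolarization by fluorescent dye (emission 590 nm), 30 min after compound, following 60 min dye loading containing 100 uM RO 20-1724 at room temperature. Cells: TSHR/CNG HEK 293, with parental CNG HEK 293 as control.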
AID923 = qHTS Assay for Allosteric/Competitive Inhibitors of Caspase-1: Spectroscopic Profiling in AFC Spectral Region; compound fluorescence, AFC spectral region (405/520 nm); almost no hit is shown here; Potency, µM (highest dose often 57.5 µM), without a hit: top-dose fluorescence increase, hits mostly activators; actives 1.1% (n = 75,000); active = well fitted activation curve with a large enough effect; inconclusive = small, poorly fitted or top-dose-only effect;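 also: potency is read from the fitted curve at half-maximal effect; 0% is about no effect; scaled to a free AFC standard on each plate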
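Titrations up to 57 uM read every 20 sec for 3 min (405/520 nm) with 50 nM caspase 1 and 5 uM Ac-WEHD-AFC, pH 7.5 HEPES buffer. Fluorescence-vs-time intercept gave baseline, scaled against on-plate AFC standard.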
A488 autofl = A488 region autofluorescence; compound autofluorescence, A488 spectral region, dye equivalency; active compounds read high; max dye equivalency, M; actives 0.1% (n = 59,000); active = above 10 nM dye equivalent; inconclusive = 1 to 10 nM; inactive = 1 nM or less; about half of its hits are not listed in these tables;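 also: highest value over a series up to 38 µM; compound alone in buffer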
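Autofluorescence read at ex 480/em 540 nm after 15 min RT in 100 mM Tris pH 8.0; compound signal normalized to A488 standard series on each plate, reported as dye-equivalent concentration at each test concentration.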
A647 autofl = A647 region autofluorescence. max dye-equivalent concentration, M. AID 592. 59,000 tested, under 10 active. Compound fluorescence, A647 channel (570/671 nm), Tris buffer; active means above 1 µM dye equivalent; inconclusive means 0.1 to 1 µM; inactive means 0.1 µM or less;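 also: values scaled relative to a standard on each plate; highest value over a series up to 38 µM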
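Tris 100 mM pH 8.0; cpd + A647 stds pin-transferred; 15 min RT; CCD imager, ex 570/em 671. Output = A647-equivalent conc. per cpd conc.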
Resorufin fluor = resorufin region autofluorescence; actives 0.04% (n = 59,000); max dye-equivalent concentration, M; Compound fluorescence, resorufin region 547/598 nm, buffer; active compounds read high; active = above 10 nM dye equivalent; inconclusive = 1 to 10 nM; inactive = 1 nM or less; a few of its hits are not listed in these tables; also: highest value over a series up to 38 µM
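Dye-equivalent concentration values derive from comparing each well's 547/598 nm fluorescence against resorufin standards included on every plate. Incubation was 15 min at room temperature in 100 mM Tris, pH 8.0.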
Starred values were filed as active, the others as inactive; i = inactive; ? = inconclusive; . = not tested or not shown; [ ] = dose if it differs, or a comment. Some of the compounds tested. The share of hits here may be higher or lower than overall.

SMILES | TSHR agonist | AID923 | A488 autofl | A647 autofl | Resorufin fluor
Cc1cccc(CNc2ccnc(-c3cccnc3)n2)c1 | ? | -3.0% | i | 1e-09 | i
CCN(CC)S(=O)(=O)c1ccc(NC2c3ccccc3C(=O)N2CCN2CCOCC2)cc1 (centres undefined) | 9% | 0.6% | . | . | .
COc1ccc(-c2nc(-c3ccccc3OC)no2)cc1OC | ? | -0.8% | i | 1.9e-08 | i
CCOc1ccc(-n2ccnc2SCC(=O)Nc2nnc(C)s2)cc1 | 2% | 0.9% | i | 8.8e-09 | i
CCOc1ccc(OCC)c(NC(=O)C(NS(=O)(=O)c2ccc3c(c2)oc(=O)n3C)C(C)C)c1 (centres undefined) | -2% | 0.3% | i | 2.8e-08 | i
O=C(O)CCc1ccc(-c2cccs2)n1Cc1ccco1 | 14% | 4.4% | i | 8.8e-09 | i
CCOc1ccc(C2CC(c3ccc(F)cc3)n3ncnc3N2)cc1 (centres undefined) | 4% | 0.3% | . | . | .
Cc1cc(C)c2c(n1)nn1c(N3CCN(c4ccccc4C)CC3)cc(C)nc21 | ? | 5.9% | i | 3e-08 | i
O=c1[nH]c2ccccc2nc1Cc1ccccc1 | 1% | -1.7% | i | 5.1e-08 | i
Nc1c(Cl)cc(Cl)cc1Cl | -2% | 5.6% | . | . | .
CCC(c1nnnn1C1CCCC1)N1CCN(c2ccccc2)CC1 (centres undefined) | ? | 1.5% | i | 3.1e-08 | i
O=C(CNC(=O)c1ccco1)OCC(=O)c1ccccc1 | 0% | 2.1% | . | . | .
Cc1nn(CC(O)Cn2c3c(c4ccccc42)CCN(C)C3=O)c(C)c1Br (centres undefined) | 14% | 0.3% | i | 1.5e-09 | i
Nc1nonc1C(=O)NCCNCc1ccccc1OCc1ccccc1F | ? | -0.5% | i | 2.6e-09 | i
CC1=CCC2C(=O)N(c3nc4ccccc4n3C)C(=O)C2C1 (centres undefined) | ? | -1.9% | i | 1e-09 | i
O=C(CSc1nnc(Cc2ccccc2)n1-c1cccc(Cl)c1)N1CCOCC1 | 4% | 1.4% | i | 4.5e-08 | i
O=C1CN(C(=O)c2cccs2)c2ccccc2N1 | 0% | 4.2% | i | 1.6e-09 | i
Cc1nn2c3ccccc3nc2c2ccccc12 | ? | 0.6% | i | 3.8e-08 | i
O=C1c2ccccc2C(=O)N1CCCc1nc(-c2cccnc2)no1 | 0% | 0.9% | i | 2.4e-08 | i
O=C(CN(Cc1ccco1)C(=O)CNS(=O)(=O)c1ccc(Cl)cc1)NCc1ccc(F)cc1 | -3% | -0.4% | i | 3.3e-08 | i
O=C(O)CCCC(=O)Nc1cccc2cccnc12 | -1% | -0.1% | i | 1e-09 | i
COC1=C(OC)C(=O)c2ccccc2C1=O | 7% | -5.5% | i | 4.7e-08 | i
CCOC(=O)c1c(CN(C)C)n(C)c2ccc(OC(C)=O)cc12 | 9% | -0.6% | i | 2.8e-08 | i
O=C(O)C1CCCN1C(=O)c1cncc(Br)c1 (centres undefined) | 0% | 2.9% | . | . | .
Cc1ccccc1NC(=O)c1ocnc1C | -12% | 0.5% | . | . | .
Continuation.
SMILES | TSHR agonist | AID923 | A488 autofl | A647 autofl | Resorufin fluor
Cc1cc(C)nc(NC(=O)CCCC(=O)O)c1 | -4% | 0.1% | i | 3.3e-08 | i
COc1ccc(NC(=O)c2cccnc2)c(OC)c1 | ? | 1.2% | . | . | .
CN(C)CCNC(=O)c1ccc(-n2c(=O)c(=O)[nH]c3ccccc32)cc1 | -4% | -0.2% | . | . | .
COc1cccc(C2c3c(oc4ccc(F)cc4c3=O)C(=O)N2CCCN2CCOCC2)c1 (centres undefined) | ? | 7.8% | . | . | .
CCCCc1ccc(NC(=O)COCC)cc1 | -5% | 0.2% | i | 4.2e-09 | i
O=C(Nc1scc(-c2ccc(F)cc2)c1C(=O)O)c1ccco1 | -1% | -0.8% | i | 2.9e-09 | i
CCOC(=O)N1CCN(CC(=O)Nc2c(C(=O)OC)[nH]c3ccc(Cl)cc23)CC1 | 8% | -0.5% | i | 1.5e-08 | i
O=C(CCN1CCCC1)Nc1cccc(Br)c1 | 2% | -0.9% | i | 3.1e-08 | i
CC(=O)Nc1nc(C)c(Oc2ccccc2)c(=O)[nH]1 | 5% | 0.2% | i | 2.4e-08 | i
CC(C)CCSc1nc(N2CCOCC2)c2c(c1C#N)CC(C)(C)OC2 | 20%[11.4 µM] | -1.3% | . | . | .
CC(=NCC(=O)O)c1ccccc1 | -2%[11.4 µM] | -3.4%[11.5 µM] | i | 2.8e-08 | i
C/C(Cl)=C/Cn1c(N2CCCC2)nc2c1c(=O)n(C)c(=O)n2C | 6% | -0.5% | i | 1.3e-09 | i
CC(C)(C)NC(=O)Cn1nnc(-c2ccc(S(C)(=O)=O)cc2)n1 | -1%[11.4 µM] | -2.6% | i | 1e-09 | i
Cc1ccc(C2C(C#N)=C(N)Oc3c2sc2ccccc32)o1 (centres undefined) | 15%[11.4 µM] | 12% | . | . | .
CO[C@H]1COC(=O)[C@@H](CCSC)NC(=O)C/C=C\[C@@H](C)COC(=O)[C@@H](OCc2ccccc2)/C=C\[C@@H]1C | -1%[11.4 µM] | 0.2%[11.5 µM] | . | . | .
CCn1c2ccccc2c2nnc(SCC(=O)c3ccccc3)nc21 | 12% | 1.9% | . | . | .
Cc1ccccc1-c1noc(-c2ccccc2C(=O)N2CCCC2)n1 | . | -0.7% | i | 2.3e-09 | i
CCCn1c(SCC(=O)O)nc2ccccc21 | 6% | 0.2% | i | 2e-08 | i
Cc1coc2c(O)cc3c(c12)OC1(N2CCCCC2)C(=O)NCCCC31 (centres undefined) | . | . | i | 4.7e-09 | i
Cc1nn(C)c(C)c1Sc1ccc(Br)cc1 | ? | 1.6% | i | 2.8e-08 | i
O=C(Nc1cccc(F)c1)Nc1ccccn1 | 0% | -1.5% | . | . | .
COc1ccc(C(=O)N(Cc2ccc(N(C)C)cc2)C2CCS(=O)(=O)C2)cc1 (centres undefined) | 8% | -2.7% | i | 1e-09 | i
CCOC(=O)N1CCN(Cc2ccccn2)CC1 | -1% | 0.3% | i | 8.2e-09 | i
COCCOCCOCCC(=O)NC1CC2CCC1(C)C2(C)C (centres undefined) | . | . | i | 7.8e-08 | i
Cc1ccc(F)cc1NC(=O)c1cccc(N(C)C)c1 | 22% | -1.4% | i | 3.7e-08 | i
Later entries.
SMILES | TSHR agonist | AID923 | A488 autofl | A647 autofl | Resorufin fluor
COC(=O)[C@@]1(Cc2ccccc2)[C@H]2c3cc(C(=O)N(C)C)n(Cc4c(CO)[nH]cc(C)c4=O)c3C[C@H]2CN1C(=O)c1ccccc1 | 0% | 0.8% | . | . | .
CCCCn1c(SCC(=O)Nc2cc(C)on2)nnc1-c1cccnc1 | -4% | -0.7% | i | 6.9e-08 | i
CCCC(c1nnnn1Cc1ccccc1)N1CCN(c2ccccc2OC)CC1 (centres undefined) | ? | 2.4% | i | 1.6e-09 | i
Cc1ccc(Nc2ncnc3nc[nH]c23)cc1Cl | ? | 5.1% | . | . | .
CCc1cc2c(nc1CC)CCN(CC/C(C)=N/OCC[C@@H]1C=C[C@H](OC(C)=O)[C@H](COC(C)=O)O1)C2 | 3%[11.4 µM] | 2.0%[11.5 µM] | . | . | .
Cn1nc(-c2ccc(Cl)cc2)c2cc(C(=O)NCCN3CCOCC3)sc21 | 5% | -1.8% | . | . | .
COc1cc2c(=O)n(CC3CCCO3)c(=O)n(CC(=O)Nc3ccc(F)cc3F)c2cc1OC (centres undefined) | 3% | -0.7% | . | . | .
Cc1occc1C(=O)NC1CCCc2ccccc21 (centres undefined) | 14% | 0.2% | i | 3.9e-08 | i
CCOc1cc(/C=N/n2cnnc2)cc(Br)c1O | 1% | 5.3% | i | 4.3e-09 | i
O=c1ccccn1Cc1ccccc1F | 4% | 0.2% | i | 5.6e-09 | i
O=C(Nc1cccnc1N1CCOCC1)c1ccco1 | 1% | 2.1% | i | 1e-09 | i
O=C(NCC(c1cccnc1)N1CCOCC1)c1cccs1 (centres undefined) | 0% | -0.6% | i | 1.1e-08 | i
COc1cccc(-n2c(SCC(=O)Nc3cc(C)on3)nc3ccccc3c2=O)c1 | ? | 3.0% | i | 2e-08 | i
CC(C)CCNC(=O)CCn1nc(-c2ccccc2)ccc1=O | 9% | -0.7% | i | 3.7e-08 | i
CSc1nc(C)c(Cl)c(C)c1C#N | ? | 1.0% | i | 3.4e-09 | i
O=C(NCCCn1ccnc1)c1cc(C2CC2)on1 | 2% | 0.5% | . | . | .
CC(C)CN(CC#N)CC(C)C | -1%[11.4 µM] | 1.4%[11.5 µM] | i | 2.2e-09 | i
C(/C=C\c1ccccc1)=Nc1ccc2c(c1)Cc1ccccc1-2 | -8%[11.4 µM] | -0.1%[11.5 µM] | i | 1e-09 | i
Cc1ccc(NC(=O)C2CCCN2C(=O)Oc2ccccc2)cc1 (centres undefined) | 2% | -1.0% | i | 9.6e-09 | i
Cc1nc2ccccn2c1C(=O)NC1CCCCC1 | 6% | -2.1% | . | . | .
COc1ccc(NC(=O)CSc2nnc(Cn3c(=O)sc4ccccc43)n2C)c(OC)c1 | -4% | -0.1% | . | . | .
CC(C)OCCCNC(=O)c1ccc(NC(=O)C2CCCO2)cc1 (centres undefined) | 0% | 1.8% | i | 4.4e-09 | i
COc1ccc(-c2noc(COc3ccc4ccccc4c3Br)n2)cc1OC | . | -0.8% | i | 1.5e-09 | i
FC(F)(F)c1ccccc1-c1cc(NCCN2CCOCC2)ncn1 | 5% | 0.1% | i | 3.4e-08 | i
CCN1CCCC1CNC(=O)c1cc(S(=O)(=O)CC)c(N)cc1OC (centres undefined) | ? | 0.4% | . | . | .

Structures shown so far that contain two or more sulfur atoms, in the order listed:
SMILES | TSHR agonist | AID923 | A488 autofl | A647 autofl | Resorufin fluor
CCOc1ccc(-n2ccnc2SCC(=O)Nc2nnc(C)s2)cc1 | 2% | 0.9% | i | 8.8e-09 | i
COc1ccc(NC(=O)CSc2nnc(Cn3c(=O)sc4ccccc43)n2C)c(OC)c1 | -4% | -0.1% | . | . | .

The results go on.
SMILES | TSHR agonist | AID923 | A488 autofl | A647 autofl | Resorufin fluor
COc1cc(OC)c(NC(=O)Nc2ccc(OC)c(OC)c2)cc1Cl | -2% | -3.2% | i | 3.9e-08 | i
Cc1nn2c3ccccc3nc2n(Cc2ccccc2)c1=O | 8% | -0.9% | i | 3.7e-08 | i
CCC(C)(C)NC(=O)C(c1cccn1C)N(C(=O)Cn1nnc2ccccc21)c1ccc(OC)cc1 (centres undefined) | 12% | -0.8% | i | 9e-09 | i
COc1cc(CN2CCN(S(=O)(=O)c3ccc(NC(C)=O)cc3)CC2)cc(OC)c1O | -2% | -0.9% | i | 4.2e-08 | i
Cc1cc(F)ccc1NCc1ccncc1 | -8% | -0.6% | . | . | .
Cc1[nH]n2c(=O)cc(C(C)(C)C)nc2c1-c1ccccc1 | ? | -0.7% | i | 1e-08 | i
O=C(Cn1c(=O)[nH]n(-c2ccccc2)c1=O)N1CCCc2ccccc21 | 4% | -1.0% | i | 4e-09 | i
CCOC(=O)N1CCN(C(=O)CSc2nnc(-c3cccc(Cl)c3)o2)CC1 | 7% | -1.8% | . | . | .
CC(=O)N[C@@H](c1ccccc1)[C@]1(C)C[C@H]1[C@@H](C)C(=O)Nc1ccc2ccccc2c1 | ? | -3.5% | . | . | .

One compound at a time, from the list above. Screens in order: TSHR agonist, AID923, A488 autofl, A647 autofl, Resorufin fluor
Entry for Cc1[nH]n2c(=O)cc(C(C)(C)C)nc2c1-c1ccccc1 : ?, -0.7%, i, 1e-08, i
Entry for COc1cc(OC)c(NC(=O)Nc2ccc(OC)c(OC)c2)cc1Cl : -2%, -3.2%, i, 3.9e-08, i

Copied from the list.
Cc1nn2c3ccccc3nc2c2ccccc12 – A647 autofl = 3.8e-08
Nc1c(Cl)cc(Cl)cc1Cl – TSHR agonist = -2%
